# PINK1 expr mod – A Quantitative High throughput Screen to Identify Chemical Modulators of PINK1 Expression. hit rate 0.2% among 410,000. PINK1 immunofluorescence, high-content cytometry, 24 h. Potency, µM (doses to about 76.6 µM), inactives show top-dose activation (PINK1 increase), most hits filed as activators; active = well fitted activation curve with a large enough effect; inconclusive = small, poorly fitted or top-dose-only effect; inactive = flat fitted curve, though single readings scatter; cell line not stated here;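 further: potency means the concentration at half of the fitted maximal effect; % of control where 0% means no effect; nearly all actives have a fitted effect of over 65% in size; a mitochondrial uncoupler was the plate control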
#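 PINK1 protein level read as immunofluorescence by microplate cytometer in a fixed, stained stable cell line after 24 h exposure to five compound concentrations, with CCCP as control.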
# TRPML1 agonist – qHTS for Agonists of the Human Mucolipin Transient Receptor Potential 1 (TRPML1); Mucolipin-1 (Homo sapiens), Q9GZU1; TRPML1-expressing cells, Ca2+ dye fluorescence, FDSS; host cell line not named in the record; reference of the full effect not given here; activation, % (test concentration not listed); hit rate 0.12% among 410,000; AID 624414, 2012; in the data active = activation above about 50%; inconclusive = about 30% to 50%; inactive = below about 30%; further: 0% is about no effect; the text of the record puts the active cut at 80%
# Target sequence (Q9GZU1 whole entry, looked up): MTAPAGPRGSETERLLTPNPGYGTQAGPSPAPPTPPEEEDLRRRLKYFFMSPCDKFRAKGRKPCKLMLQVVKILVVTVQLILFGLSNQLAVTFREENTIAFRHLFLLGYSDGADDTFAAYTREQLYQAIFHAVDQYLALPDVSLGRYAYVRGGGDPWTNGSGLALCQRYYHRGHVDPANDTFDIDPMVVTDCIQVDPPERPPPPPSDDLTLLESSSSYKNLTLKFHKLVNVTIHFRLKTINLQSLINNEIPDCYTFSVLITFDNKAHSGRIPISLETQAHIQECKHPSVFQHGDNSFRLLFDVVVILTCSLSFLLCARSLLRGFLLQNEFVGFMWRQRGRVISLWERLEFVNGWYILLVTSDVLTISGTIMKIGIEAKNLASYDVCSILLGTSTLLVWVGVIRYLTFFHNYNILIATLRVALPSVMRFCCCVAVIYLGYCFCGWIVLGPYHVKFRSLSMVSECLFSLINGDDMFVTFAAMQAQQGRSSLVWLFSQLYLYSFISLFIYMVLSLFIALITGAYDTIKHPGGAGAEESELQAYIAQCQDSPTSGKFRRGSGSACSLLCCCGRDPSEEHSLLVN
#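 Calcium fluorescence on an FDSS kinetic reader gave the read-out. Tet-induced TRPML1-DL cells were plated overnight, dye-loaded (Ca8 with quencher, 45-90 min, room temperature, dark), then read 110 s after compound addition, and again 110 s after 4uM final 54-4 (EC80).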
# D2 agonist – Beta-Arrestin HTS for Positive Allosteric Modulators of the Human D2 Dopamine Receptor: Agonists; D(2) dopamine receptor (Homo sapiens), P14416; DiscoveRx PathHunter D2 beta-arrestin, luminescence, 90 min; 100% = 57 uM dopamine signal; activation, % (concentration not given with the values); hit rate 0.084% among 360,000; in the data active = activation above about 40%; inconclusive = about 15% to 40%; inactive = below about 15%; further: compound concentration not given in the record; the text of the record calls up to 30% inactive
# Target sequence (P14416 whole entry, looked up): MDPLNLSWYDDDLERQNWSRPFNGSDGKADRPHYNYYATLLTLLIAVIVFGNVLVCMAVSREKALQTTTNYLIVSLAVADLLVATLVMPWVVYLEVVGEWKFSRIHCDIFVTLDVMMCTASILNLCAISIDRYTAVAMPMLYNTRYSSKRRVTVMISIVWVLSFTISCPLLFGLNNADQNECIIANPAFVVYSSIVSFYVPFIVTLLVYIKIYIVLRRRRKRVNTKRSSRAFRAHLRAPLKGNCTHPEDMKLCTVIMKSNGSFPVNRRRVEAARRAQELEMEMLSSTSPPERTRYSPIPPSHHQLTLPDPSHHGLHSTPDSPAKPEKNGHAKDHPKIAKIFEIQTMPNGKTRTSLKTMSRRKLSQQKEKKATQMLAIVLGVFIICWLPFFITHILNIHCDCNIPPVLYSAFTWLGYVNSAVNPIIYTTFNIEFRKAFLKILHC
#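 Agonist mode: compounds alone added to overnight-plated D2 PathHunter cells for 90 min at 37 C, with 57 uM final dopamine (EC100) defining full response. Beta-arrestin recruitment detected by chemiluminescent reagent, read after 1 h at ambient temperature.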
# CtBP-E1A inh – qHTS Assay for Inhibitors of the CtBP/E1A Interaction. CtBP / adenovirus E1A interaction (AlphaScreen). AlphaScreen GST-E1A/His-CtBP binding, 1536-well; stronger effect = lower value; control for the full effect not named in the record. activity change, % (concentration not given with the values). hit rate 0.49% among 340,000. AID 651724, 2012; in the data active means activity change below about -65%; inconclusive means about -30% to -65%; inactive means above about -30%; further: on the % scale 0 is the no-effect control and ±100 the full control effect
#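 Protein mix (5X: 125 nM each GST-E1A, His-CtBP) was incubated with pinned compound 2 h at 37 deg C in dark, in 50 mM Tris pH 8.0 buffer with 300 mM NaCl. Glutathione donor and nickel acceptor beads followed; AlphaScreen signal read after 1 h.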
# Six1-Eya2 blk – qHTS Assay for Inhibitors of the Six1/Eya2 Interaction; Homeobox protein SIX1 (Homo sapiens) + Protein phosphatase EYA2 (Homo sapiens), …; AlphaScreen GST-Six1/His-Eya2 binding, biochemical; stronger effect = lower value; control for the full effect not named in the record; activity change, % (concentration not given with the values); hit rate 0.56% among 360,000; AID 651725, 2012; in the data active = activity change below about -65%; inconclusive = about -30% to -65%; inactive = above about -30%; further: on the % scale 0 is the no-effect control and ±100 the full control effect
#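 AlphaScreen luminescence read after one hour at 37 °C in darkness. Pin-transferred compounds met GST-Six1 and His-Eya2 protein (5X stock 250 nM/500 nM) plus glutathione donor and Ni-chelate acceptor beads (5X, 50 ug/mL).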
# D2 potentiator – Beta-Arrestin HTS for Positive Allosteric Modulators of the Human D2 Dopamine Receptor: Potentiators | hit rate 0.23% among 360,000 | DiscoveRx D2 beta-arrestin cells, luminescence, 90 min; 100% = 57 uM dopamine signal | potentiation, % (concentration not given with the values) | D(2) dopamine receptor (Homo sapiens), P14416; active = potentiation of 50% or more; inconclusive = 30% to 50%; inactive = 30% or less;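 further: compound concentration not given in the record; tested on top of an EC20 dose of dopamine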
#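 D2 cells co-treated with compound plus 50 nM dopamine (EC20) for 90 min at 37 deg C to detect potentiation. Beta-arrestin recruitment was read as enzyme-fragment luminescence after 1 h at ambient temperature. Full response was set by 57 uM dopamine.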
# The depositor's hits bear a star; ? = inconclusive; / = not tested or not shown; & = joins results of further samples; [ ] = another dose, or the depositor's remark.
compound,PINK1 expr mod,TRPML1 agonist,D2 agonist,CtBP-E1A inh,Six1-Eya2 blk,D2 potentiator
Cc1sc2ncnc(SCC(=O)N(C)C3CCS(=O)(=O)C3)c2c1C (configuration not stated),-0.2%,0.5,-1.7,1.1,3.3,-3.5
Cc1ccc(N(C(C)C(=O)N2CCCCC2)S(C)(=O)=O)cc1C (configuration not stated),9.6%[38.3 µM],-0.3,-0.6,2.5,0.9,-4.4
CCn1c(C)c(C)c2cc(C(=O)NCCN3CCCCCC3)ccc21,-0.7%,-1.0,2.7,-27.6,-21.5,-30.7
O=C(O)c1cc(S(=O)(=O)N2CCCCC2)ccc1N1CCCC1,0.7%,-0.3,-3.2,6.0,7.7,-2.3
CCCNC(=O)CCc1c(C)nc2c(c(C)nn2-c2ccccc2)c1C,0.3%,/,-0.2,3.3,3.5,3.5
CN(C)S(=O)(=O)c1ccc(C(=O)OCc2ccc([N+](=O)[O-])cc2)cc1,4.1%,0.9,-6.0,/,-2.7,-4.1
COc1cc(/C=N/OCC(=O)NC2CCS(=O)(=O)C2)ccc1OC(F)F (configuration not stated),2.1%,-0.6,5.8,12.6,-3.0,11.2
Cc1ccccc1C(=O)OCc1nnc(-c2ccc(Cl)cc2)o1,3.0%,0.0,-4.0,23.3,16.1,-11.7
O=C(Nc1nc2cc3c(cc2s1)OCO3)c1ccc(N2C(=O)CCC2=O)cc1,-0.1%,/,-0.7,7.1,4.3,-1.6
c1csc(-c2nn[nH]n2)c1,-2.5%,-0.4,-0.5,-1.6,9.6,3.9
O/C(=C\Sc1nnc(Cc2ccccc2)o1)c1ccc(F)cc1,2.6%[38.3 µM],0.5,-2.0,7.1,1.2,-7.9
CN(C)C=Nc1ccc2nc3c(cc2c1)[nH]c1ccccc13,0.6%,1.6,?,/,-11.1,-9.4
COc1ccc(N(C)C(=O)Nc2ccc3nsnc3c2)cc1,-1.4%,7.8,2.2,0.0,0.5,-2.8
O=C(NCc1ccccc1)c1cccc(NC(=O)c2ccccc2)c1,0.6%,1.3,-1.3,-10.5,-0.4,-6.1
Cc1cccc(C)c1NC(=O)CN(C)C(=O)CN1C(=O)NC2(CCCC2)C1=O,2.4%,-0.7,2.3,0.9,3.7,20.6
CCOC(=O)c1ccc(/[N+]([O-])=C/c2ccccc2)cc1,-0.4%,-0.5,-5.5,-2.2,-2.1,-11.0
COC(=O)C1CCCCN1C(=O)c1ccc(OC2CCN(C(C)=O)CC2)c(OC)c1 (configuration not stated),0.5%,1.3,-3.3,13.6,-0.2,-11.1
CCOc1ccc(Br)cc1/C(C)=N\NC1=NCCN1,1.0%,1.3,-0.7,3.8,3.1,-38.4
C=CCn1c(O)c(N=NC(=O)CNC(=O)Cc2ccccc2)c2ccccc21,-0.8%,0.8,1.3,-1.1,-0.3,-20.9
Cc1ccc(CNC(=O)CSc2nc(N3CCCCC3)nc(N3CCCCC3)n2)cc1,16.4%,-0.5,-2.3,-3.6,-6.6,-0.9
CN(CC(=O)Nc1ccc(Cl)c(Cl)c1)CC(=O)N1CCc2ccccc21,?,1.0,-1.5,4.2,2.8,-11.9
CCN(C(=O)CCN1C(=O)/C(=C/c2ccccc2)SC1=S)C1CCS(=O)(=O)C1 (configuration not stated),1.0%,-0.3,0.2,?,-12.4,-11.4
CC(O)CCC(=O)NNC1CC(=O)N(c2ccccc2)C1=O (configuration not stated),-1.1%,-0.4,0.2,0.2,4.8,-1.6
O=C(CNC(=O)c1ccc(Br)o1)Nc1ccc(F)c(S(=O)(=O)N2CCOCC2)c1,0.5%,-0.2,3.4,2.5,0.5,-19.2

# Nothing new here: an excerpt of the list.
compound,PINK1 expr mod,TRPML1 agonist,D2 agonist,CtBP-E1A inh,Six1-Eya2 blk,D2 potentiator
COC(=O)C1CCCCN1C(=O)c1ccc(OC2CCN(C(C)=O)CC2)c(OC)c1 (configuration not stated),0.5%,1.3,-3.3,13.6,-0.2,-11.1
CCOc1ccc(Br)cc1/C(C)=N\NC1=NCCN1,1.0%,1.3,-0.7,3.8,3.1,-38.4

# Remaining list, next part.
compound,PINK1 expr mod,TRPML1 agonist,D2 agonist,CtBP-E1A inh,Six1-Eya2 blk,D2 potentiator
COc1cc2c(cc1OC)C(c1cc3cc(OC)c(OC)cc3[nH]c1=O)N(C(=O)C1CC1)CC2 (configuration not stated),5.9%[38.3 µM],-0.3,-2.1,3.9,-4.1,1.6
NNc1nc(NCc2ccccc2)nc(N2CCOCC2)n1,-2.7%,0.2,-1.3,-5.5,-6.7,-24.3
CCO[C@@H]1OC(C(=O)NCc2ccccc2)=C[C@H](C(C)(C)C)[C@H]1CCCO,-0.5%,-0.7,-1.7,-5.1,-26.7,-8.9
CC1CCC/C(=C(\C#N)c2nc(-c3cc4ccccc4oc3=O)cs2)C1 (configuration not stated),0.1%,1.3,-1.4,7.8,28.6,7.6
O=C(Cn1c(CO)nc2ccccc21)NCCc1ccccc1,-0.2%,-0.1,2.1,-4.5,6.8,0.3
O=C(NC1CCCC1)c1cccc2c1C(=O)c1ccc(N3CCCCC3)cc1S2(=O)=O,0.0%,3.6,-7.1,-2.4,9.9,-4.2
CCOC(=O)c1cc(CC)sc1NC(=O)C1CC1,5.4%[38.3 µM],0.8,-1.6,11.5,12.3,-9.8
O=C1CC(N2CCN(c3cccc(C(F)(F)F)c3)CC2)C(=O)N1c1ccccc1 (configuration not stated),0.4%,-0.6,-6.0,8.8,5.6,0.4
CC1=NN(c2ccc(C(F)(F)F)cn2)C(=O)C1,7.0%,0.3,-8.3,?,-68.2*,-14.5
O=C(Cn1c(C(=O)OCCO)cc2ccccc21)c1ccccc1,1.6%,-0.3,-5.0,-1.1,3.7,-4.9
O=C(Cc1cccs1)Nc1ccc(-c2nnc(-c3ccco3)o2)cc1,?,3.4,0.8,4.5,0.0,-0.9
CC(C)NC(=O)Nc1ccc2c(c1)C(=O)N([C@H](C)CO)C[C@H](C)[C@@H](CN(C)S(=O)(=O)c1cn(C)cn1)O2,4.6%,1.2,-0.8,0.5,2.7,1.1
O=S(=O)(NCCc1cn2ccccc2n1)c1cccs1,-0.5%,-0.1,-5.9,4.6,5.9,-8.3
CCCOc1ccc(C2CC(=O)Nc3cc(OC)c(OC)cc32)cc1 (configuration not stated),4.3%,-0.1,-2.9,-0.5,-16.2,0.4
O=C(NC(=S)Nc1cccc(Cl)c1N1CCCCC1)c1ccc2c(c1)OCCO2,6.5%,0.6,-4.8,-8.3,-0.4,-9.4
CC(OC(=O)CCCc1c[nH]c2ccccc12)C(=O)Nc1ccc(S(N)(=O)=O)cc1 (configuration not stated),-0.6%,-0.2,1.7,-2.7,-9.7,-3.1

# Complete entries, looked up by structure. Order of values: PINK1 expr mod	TRPML1 agonist	D2 agonist	CtBP-E1A inh	Six1-Eya2 blk	D2 potentiator
# `CC(OC(=O)CCCc1c[nH]c2ccccc12)C(=O)Nc1ccc(S(N)(=O)=O)cc1` (configuration not stated) is listed as -0.6%	-0.2	1.7	-2.7	-9.7	-3.1
# `O=S(=O)(NCCc1cn2ccccc2n1)c1cccs1` is listed as -0.5%	-0.1	-5.9	4.6	5.9	-8.3
# `CC1=NN(c2ccc(C(F)(F)F)cn2)C(=O)C1` is listed as 7.0%	0.3	-8.3	?	-68.2*	-14.5
# `O=C(NC(=S)Nc1cccc(Cl)c1N1CCCCC1)c1ccc2c(c1)OCCO2` is listed as 6.5%	0.6	-4.8	-8.3	-0.4	-9.4
# `O=C(Cc1cccs1)Nc1ccc(-c2nnc(-c3ccco3)o2)cc1` is listed as ?	3.4	0.8	4.5	0.0	-0.9

# The list goes on:
compound,PINK1 expr mod,TRPML1 agonist,D2 agonist,CtBP-E1A inh,Six1-Eya2 blk,D2 potentiator
O=C(c1ccc(CS(=O)c2cccc(Cl)c2)o1)N1CCN(C2CCCCC2)CC1 (configuration not stated),2.1%,-0.1,-4.1,-0.1,-0.6,-18.0
O=C(COc1ccc(F)cc1Cl)Nc1ccc(S(=O)(=O)Nc2nccs2)cc1,-1.2%,0.1,1.1,-9.0,-22.0,-9.7
COc1ccc(CCNCC(O)c2ccccc2)cc1 (configuration not stated),2.4%,0.7,-3.3,0.9,-0.6,-8.9
O=C(NCc1cccc(Br)c1)c1cc(-c2ccccc2)nn1CC1CC(c2cccc([N+](=O)[O-])c2)=NO1 (configuration not stated),5.3%,0.2,2.4,/,0.8,-1.2
CCCn1c(=O)c2ccccc2n2c(SCC(=O)Nc3cc(C)on3)nnc12,3.0%,-0.6,-0.8,-0.7,-3.9,-9.6
Cc1ccc(C(=O)Nc2nc(=O)[nH]s2)cc1,-2.2%&-1.5%,0.4&0.3,3.4&1.9,1.6&7.2,5.6&-7.1,-2.5&-4.4
O=C(NC(c1ccccc1)c1ccc2ccccc2n1)C1CCN(Cc2ccc(Cl)c(Cl)c2)CC1 (configuration not stated),3.1%,0.8,-4.4,-23.7,-7.7,-20.4
Cc1ccc(OCC(O)CN2CCN(c3ccccn3)CC2)c(C)c1 (configuration not stated),4.7%,-0.7,?,-13.0,-3.2,20.9

# Single entries from above:
# `COC(=O)C1CCCCN1C(=O)c1ccc(OC2CCN(C(C)=O)CC2)c(OC)c1` (configuration not stated) in TRPML1 agonist is listed with 1.3
# `Cc1ccc(C(=O)Nc2nc(=O)[nH]s2)cc1` in PINK1 expr mod is listed with -2.2%&-1.5%
# `O=C(NCc1cccc(Br)c1)c1cc(-c2ccccc2)nn1CC1CC(c2cccc([N+](=O)[O-])c2)=NO1` (configuration not stated) in D2 agonist is listed with 2.4
# `CCOC(=O)c1ccc(/[N+]([O-])=C/c2ccccc2)cc1` in TRPML1 agonist is listed with -0.5

# (more compounds)
compound,PINK1 expr mod,TRPML1 agonist,D2 agonist,CtBP-E1A inh,Six1-Eya2 blk,D2 potentiator
COc1ccc(S(=O)(=O)NCc2cccnc2)cc1,1.0%,0.5,-4.7,-6.0,5.0,-3.2
O=C(CN1CCN(Cc2ccccc2F)C1=O)NC1CCCC1,1.7%,-0.3,-3.9,0.4,6.9,-9.5
O=C(Nc1ccc2c(c1)OCCO2)C(c1ccc(F)cc1)N1CCCCC1 (configuration not stated),-3.2%,1.6,-3.4,-13.6,-0.1,-9.7
Cc1ccc(NC(=O)c2cc(-c3ccc4c(c3)OCO4)on2)cc1,1.9%&1.3%,-0.6&-0.3,-0.9,3.0,5.3,-0.7
Cc1cccc(C)c1NC(=O)c1c(-c2ccccc2)noc1C,/,0.7,-0.3,5.1,1.6,-1.6
O=C(CNc1ccc(Br)cc1)Nc1cccc(S(=O)(=O)N2CCCC2)c1,2.9%,1.1,1.6,3.0,-10.6,7.0
CCCCOc1ccc(C(=O)OC2CC(C)N(C)CC2C)cc1 (configuration not stated),3.0%,0.8,-2.7,-0.7,0.3,-29.4
CC(C)c1nc2ccccn2c1NC1CCCCC1,-3.8%,1.5,-1.0,-13.4,-2.5,-7.2

# Source: PubChem BioAssay
